RE007 growth inh – qHTS Assay for Inhibitors of the HIV-1 protein Vpr | hit rate 0.21% among 360,000 | Potency, µM (doses to about 92.2 µM), without a hit: at the top dose activity change, negative = less growth | S. pombe RE007 Vpr strain, BacTiter-Glo ATP luminescence, 24 h; control for the full effect not named in the record; active = well fitted falling curve with a large enough effect; inconclusive = small, poorly fitted or top-dose-only effect; inactive = no such curve, though single readings can be large or run the other way;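 note: % is set by controls: 0 for no effect and ±100 for the full control effect; nearly all actives have a fitted effect of over 50% in size; the assay follows cell death caused by Vpr and the record does not say whether a fall means rescue or toxicity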
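Fission yeast strain RE007, carrying one chromosomally integrated HIV-1 vpr copy, was seeded at OD 0.01 in PMG+AL medium with 23 nL pinned compound. After 24 h at 30 °C and 99% humidity, viability was read by BacTiter-Glo luminescence.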
Marburg entry inh – qHTS for inhibitors of binding or entry into cells for Marburg Virus | Potency, µM (doses to about 37.8 µM), without a hit: at the top dose activity change, negative = inhibition, usual class: inhibitors | Marburg virus pseudotyped entry inhibition, cell reporter; control for the full effect not named in the record; about a third of the inactives were read at about 46 µM | hit rate 1.8% among 300,000; active = well fitted inhibition curve with a large enough effect; inconclusive = small, poorly fitted or top-dose-only effect, or effect the other way; inactive = flat fitted curve, though single readings scatter; tested in HEK293 cells; about a fifth of its hits are not listed in these tables; note: % is set by controls: 0 for no effect and ±100 for the full control effect; luciferase read-out
SARS PLpro yeast – qHTS of Yeast-based Assay for SARS-CoV PLP; S. cerevisiae expressing SARS-CoV PLpro, growth rescue; control for the full effect not named in the record; Potency, µM (highest dose often 32.9 µM), without a hit: at the top dose activity, positive = growth rescue; hit rate 0.19% among 330,000; active means well fitted rising curve with a large enough effect; inconclusive means small, poorly fitted or top-dose-only effect; inactive means no such curve, though single readings can be large or run the other way; note: 0% is about no effect; nearly all actives have a fitted effect of over 55% in size; growth read by luminescence after 48 h
Cruzain inh Det – qHTS Assay for Promiscuous and Specific Inhibitors of Cruzain (with detergent); hit rate 0.43% among 200,000; Potency, µM, without a hit: max response, negative = inhibition, actives largely listed as inhibitors; purified cruzain, Z-FR-AMC fluorescence, 0.01% Triton;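 note: plate controls were neutral wells for no effect and buffer without enzyme for full effect; nearly all actives have a fitted effect of over 40% in size; top concentration of the series not given in the record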
Target sequence (P25779 123-467 limits assumed): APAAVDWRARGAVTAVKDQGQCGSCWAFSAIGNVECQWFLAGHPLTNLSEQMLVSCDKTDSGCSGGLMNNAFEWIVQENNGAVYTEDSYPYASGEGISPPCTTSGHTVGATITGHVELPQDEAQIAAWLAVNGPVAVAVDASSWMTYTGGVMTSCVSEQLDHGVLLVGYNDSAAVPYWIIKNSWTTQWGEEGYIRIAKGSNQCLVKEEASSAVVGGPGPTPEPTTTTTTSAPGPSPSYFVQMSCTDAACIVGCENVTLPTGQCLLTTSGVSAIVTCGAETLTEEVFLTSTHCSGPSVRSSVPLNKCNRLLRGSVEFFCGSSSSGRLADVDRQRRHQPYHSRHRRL
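Read-out: AMC fluorescence (360 nm excitation, 450 nm emission), four reads over 2 min, first-to-third difference used. Conditions: cruzain 1.5 nM, Z-FR-AMC 2 uM, pH 5.5 acetate, 5 mM DTT, 0.01% Triton X-100.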
Cruzain inh noDet – qHTS Assay for Promiscuous and Specific Inhibitors of Cruzain (without detergent); Potency, µM, for inactives: max response, negative = inhibition, hits mostly inhibitors; purified cruzain, Z-FR-AMC fluorescence, no detergent; AID 1476, 2009; Cruzipain (Trypanosoma cruzi), P25779; hit rate 2.3% among 200,000;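 note: plate controls were enzyme without inhibitor for no effect and buffer without enzyme for full effect; nearly all actives have a fitted effect of over 40% in size; top concentration of the series not given in the record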
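Purified cruzain at 1.5 nM, pre-incubated 15 min with compound at room temperature in 100 mM sodium acetate pH 5.5, 5 mM DTT, 0.00005% Triton X-100. Reaction started with 2 uM Z-FR-AMC; AMC fluorescence increase over 60 s gives rate.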
NS1 inh – qHTS Assay for Inhibitors of Influenza NS1 Protein Function; hit rate 0.4% among 270,000; S. cerevisiae slowed by influenza A NS1, growth recovery by OD600; Potency, µM (titrated, usually from 46.1 µM), inactives show at the highest dose activity, positive = more growth; active means well fitted rising curve with a large enough effect; inconclusive means small, poorly fitted or top-dose-only effect; inactive means no such curve, though single readings can be large or run the other way; note: nearly all actives have a fitted effect of over 50% in size
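Recovery from NS1-induced slow growth read by OD600 in budding yeast switched to galactose assay medium (pH 6.0, -URA) at 1:100 dilution. Compound 23 nl per well; the matching strain lacking NS1 serves as control.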
2A StopGo – High Throughput Screening for Foot and Mouth Disease Virus Antivirals. human cells with a luciferase reporter of 2A StopGo recoding; control for the full effect not named in the record. Potency, µM (highest dose often 57.9 µM), without a hit: at the highest dose signal change, negative = less light. hit rate 1.2% among 410,000. AID 1159524, 2015; active = well fitted falling curve with a large enough effect; inconclusive = small, poorly fitted or top-dose-only effect; inactive = no such curve, though single readings can be large or run the other way; tested in HEK293T cells; note: % is set by controls: 0 for no effect and ±100 for the full control effect; nearly all actives have a fitted effect of over 45% in size; luciferase light after 4 h
LASV entry inh – qHTS for Inhibitors of binding or entry into cells for Lassa Virus | Lassa virus pseudotype entry inhibition, cell reporter; control for the full effect not named in the record | Potency, µM (titrated, usually from 37.9 µM), for inactives: at the highest dose activity change, negative = inhibition, most hits filed as inhibitors | hit rate 1.2% among 300,000 | AID 540256, 2011; active means well fitted inhibition curve with a large enough effect; inconclusive means small, poorly fitted or top-dose-only effect, or effect the other way; inactive means flat fitted curve, though single readings scatter; tested in HEK293 cells; note: % is set by controls: 0 for no effect and ±100 for the full control effect; nearly all actives have a fitted effect of over 50% in size; luciferase read-out
Active calls of the source: *; ? = inconclusive; nt = no result given; & = joins results of further samples; [ ] = another dose, or the depositor's remark. Unless noted, calls come from the whole dose curve; as a rule, active = well fitted curve in the direction sought with a large enough effect; inconclusive = small, poorly fitted or top-dose-only effect, or another doubt; inactive = no such curve, though single readings can be large; an effect the other way counts as inactive or inconclusive. Potency is the fitted concentration of half-maximal effect.

Results follow in this order: RE007 growth inh	Marburg entry inh	SARS PLpro yeast	Cruzain inh Det	Cruzain inh noDet	NS1 inh	2A StopGo	LASV entry inh
> O=C1C2CC=CCC2C(=O)N1CC(=O)N(Cc1ccccc1)C1CCS(=O)(=O)C1 (centres undefined)
    2%	?	2%	-2.6%	-1%	-9%	3%	16%
> CCN(CC)CCOC(=O)c1ccc(Cl)cc1
    -12%	-3%[46.1 µM]	13%	3.6%	-3%	-10%	-8%	4%
> CC(C)C(=O)Nc1ccc(NC(=O)c2ccccc2Cl)nc1
    9%	?	-2%	-2.3%	-6%	-6%	53%[activator]	-7%
> CCOc1ccc(S(=O)(=O)NCCC(=O)NC2=NCCS2)cc1
    -1%	?	3%	-0.5%	6%	3%	?	6%
> CCCNC(=O)COc1ncnc2sc(C)c(C)c12
    3%	?	-1%	-0.1%	4%	-1%	-17%	25%
> O=C(O)Cn1cc(C(=O)c2cccs2)c2ccccc21
    -11%	0%	-9%	-0.6%	-16%	3%	-5%	2%
> COc1ccc(CN2CCCC(C(=O)c3ccc(Cl)cc3)C2)cc1Cn1cccn1 (centres undefined)
    -15%	2.8µM*	2%	nt	nt	-9%	-14%	10µM*
> NC(=O)C1CCN(C(=S)c2cccs2)CC1
    5%	13%	0%	1.7%	3%	7%	-5%	6%
> Cc1cccc(CSC(Nc2ccc(F)cc2)=C(C#N)C#N)c1
    -6%	2.9µM*	-14%	-9.7%	-13%	-35%	?	?
> CC(C)(C)c1cc(C(=O)Nc2cccc3ccccc23)ccn1
    -13%	-1%	-18%	-2.8%	3%	-26%	0%	2%
> Cc1ccc(NC(=O)CN2C(=O)C3(SCC(=O)N3c3cccc(Cl)c3)c3ccccc32)cc1C (centres undefined)
    nt	nt	nt	-5.4%	20µM*	nt	-11%	?
> O=C(NC1CCCCCC1)c1ccc(-n2cnnc2)cc1
    10%	nt	0%	nt	nt	4%	8%	nt
> N#CCCCn1c(O)c(N=NC(=O)C(O)c2ccccc2)c2ccccc21 (centres undefined)
    16%	nt	1%	nt	nt	-4%	-1%	nt
> O=C(N/N=C\c1ccc(OCC(=O)N2CCCC2)cc1)C(=O)Nc1ccccc1F
    16%	?	7%	-6.4%	3%	4%	9%	29%
> Cn1c(CO)cnc1SCc1ccccc1
    15%	0%	-7%	1.7%	0%	-8%	42%[activator]	26%
> CCc1ccc(Sc2cc(C(=O)NCc3ccccc3OC)c3ccccc3n2)cc1
    nt	nt	nt	1.2%	-16%	nt	-3%	?
> O=C(CNC(=O)c1ccc(Cl)cc1)c1ccc(Cl)cc1
    -14%	?	0%	nt	nt	0%	8%	14%[46.1 µM]
> O=C(Cn1cnc2c(cnn2-c2ccccc2)c1=O)N1CCCc2ccccc21
    ?	7.3µM*	-7%	-5.9%	-3%	-9%	?	?
> CCc1ccc(OCC(=O)N(Cc2cccs2)C2CCS(=O)(=O)C2)cc1 (centres undefined)
    -3%	nt	-11%	nt	nt	-3%	-3%	nt
> CCCOc1ccc(C(=O)O)cc1
    -5%	2%[46.1 µM]	-2%	nt	nt	-44%	-13%	5%
> C=C(C)CN=C1NN=C(c2cc(C)n(-c3ccc(C)cc3)c2C)CS1
    14%	-4%	-6%	-5.8%	7.9µM*	19%	23%	?
> O=C(NCC1CCCO1)c1ccc(NC(=O)C2C3C=CC(C3)C2C(=O)O)cc1 (centres undefined)
    6%	8%	0%	6.7%	-6%	-1%	12%	1%
> COc1ccc(-c2nc3ccc(C(=O)NCc4ccccc4)cc3nc2-c2ccc(OC)cc2)cc1
    nt	nt	nt	0.8%	-17%	nt	22%	19%[46.1 µM]
> Cc1cc(NC(=O)CSc2nc3c(C)c(C)ccc3cc2C)no1
    -3%	17%[46.1 µM]	0%	nt	nt	-5%	-7%	24%
> O=c1[nH]c(-c2ccccn2)nc(C(F)(F)F)c1Br
    ?	?	-6%	nt	nt	-77%	-26%	?
> CCOc1ccc(NC(=O)Cn2cc(C(=O)c3ccc(CC)cc3)c(=O)c3cc(C)ccc32)cc1
    nt	4%[46.1 µM]	nt	-2.7%	-3%	nt	-5%	13%[46.1 µM]
> COC(=O)C1=CC(C(=O)c2cccs2)=NN(c2ccc(OC)cc2)C1C(=O)OC (centres undefined)
    -11%	?	11%	-5.8%	?	26%	-9%	?
> NC(=S)NN=C1Cc2cccc3cccc1c23
    1%	11%	nt	nt	nt	nt	-4%	6%
> CCOC(=O)c1cc2cc(OC)ccc2nc1C
    ?	6%	-1%	-1.9%	-4%	0%	3%	26%
> Cc1nn(Cc2ccc(Cl)c(Cl)c2)c(C)c1NC(=O)c1sc2ccccc2c1Cl
    36%	-3%[46.1 µM]	-1%	6.2%	16µM*	2%	32µM*	?
> Cn1c(CO)cnc1SCC(=O)c1ccc(Cl)cc1
    0%	?	2%	nt	nt	nt	6%	?
> CC(C)NC(=O)CCn1nc(-c2ccc(Cl)cc2)c2ccccc2c1=O
    3%	?	0%	nt	nt	-3%	-6%	-17%[46.1 µM]
> Cc1ccc(-c2csc(NC(=O)CN3CCOCC3)n2)cc1
    -3%	?	3%	nt	nt	7%	-12%	?
> CCN1CCN(Cc2ccc(NC(=O)CC3Oc4ccc(C)cc4NC3=O)cc2)CC1 (centres undefined)
    7%	0%	0%	-0.8%	6%	-5%	0%	nt
> CCCNC(=O)C1CCC(Cn2c(=O)c3sccc3n(CC(=O)NCc3cccc(OC)c3OC)c2=O)CC1 (centres undefined)
    nt	-3%[46.1 µM]	nt	2.0%	3%	nt	-5%	0%[46.1 µM]
> O=c1[nH]c(=S)[nH]c(O)c1N=Nc1cc2c(cc1[N+](=O)[O-])OCO2
    8%	4%[46.1 µM]	7%	nt	nt	nt	-25%	-10%
> Cc1nn(C)c2c1c(C(F)(F)F)cc(=O)n2CC(=O)NCc1ccccc1Cl
    nt	nt	nt	-0.4%	6%	nt	-12%	-16%[46.1 µM]
> COc1ccc(NC(=O)C2CCCN(S(=O)(=O)c3c(C)[nH]c(=O)[nH]c3=O)C2)cc1OC (centres undefined)
    8%	6%&11%[46.1 µM]	1%	-2.7%	8%	nt	-9%&-1%	10%
> O=c1c2c(nc3cc(-c4ccc(F)cc4)[nH]n13)CCC2
    7%	?	3%	-5.4%	-7%	-11%	-32%	8%
> Cc1ccc(OCC(=O)N2CCN(CCc3ccncc3)CC2)cc1
    nt	28%[46.1 µM]	nt	-1.1%	-4%	nt	-5%	9%[46.1 µM]
> COc1cc(Nc2cccc[n+]2C)cc(OC)c1OC
    12%	nt	-2%	nt	nt	1%	1%	nt
> C=CCc1c(C)nc(-c2ccccc2)nc1N/N=C(\C)c1ccc(N)cc1
    -5%	13%	-17%	-7.9%	-7%	2%	-3%	?
> O=C(O)C=C1CCN(c2ncc(C(F)(F)F)cc2Cl)CC1
    -10%	6%	-7%	2.0%	5%	-103%	44%[activator]	10%
> O=C(Nc1ccc2nc3n(c(=O)c2c1)CCCC3)c1cc([N+](=O)[O-])ccc1F
    -16%	7.1µM*	-20%	-6.3%	-14%	-9%	20µM*	3.3µM*
> COc1ccccc1CNC(=O)Cn1c(=O)nc(-c2ccccc2F)c2cc(Cl)ccc21
    nt	nt	nt	-3.9%	4%	nt	-27%	?
> O=C(Nc1cccc(Cl)c1)Nc1cccc(Cl)c1
    3%	?	-10%	-11%	2%	5%	-1%	-22%
> C=CCOc1c(Cl)cc(C(=S)N2CCCC2)cc1OCC
    -2%	-8%	2%	nt	nt	-24%	-18%	?
> O=C(Nc1ccc(Oc2cccc(C(F)(F)F)c2)nc1)c1cccs1
    8%	?	-4%	nt	nt	-10%	?	-10%[46.1 µM]
> COc1ccc(OC)c(N(CC(=O)Nc2cccc3ccccc23)S(C)(=O)=O)c1
    -6%	-10%	nt	nt	nt	nt	12%	?
> CCOC(=O)CNC(=O)c1cc2c(=O)oc3ccccc3c2s1
    nt	-5%[46.1 µM]	nt	0.8%	-1%	nt	-4%	12%[46.1 µM]
> CN(CC(=O)NCCc1ccccc1)S(=O)(=O)c1cnc[nH]1
    13%	?	-6%	-2.8%	-3%	15%	13%	1%
> CCN(CC)c1nc(NNC(=O)c2ccccc2)nc(N(CC)CC)n1
    5%	4%	nt	nt	nt	nt	3%	13%
> COc1ccc(-n2c(/C=C/c3ccc(O)c(O)c3)nc3ccccc3c2=O)cc1
    -26%	nt	0%	nt	nt	-17%	?	nt
> Cc1ccc(C)c(N=Nc2nc3ccccc3n2C)c1
    ?	?	-21%	0.4%	-11%	-148%	nt	?
> CCN(CC)CCN(C(=O)c1ccc(Br)s1)c1nc2cc3c(cc2s1)OCCO3
    -14%	?	-5%	nt	nt	nt	-2%	10%[46.1 µM]
> CCN1CCCC1CNC(=O)c1cc2c(OC)cccc2[nH]1 (centres undefined)
    1%	nt	-1%	nt	nt	8%	-17%	nt
> CCCOC(=O)CSc1nnc(-c2ccc(Cl)cc2Cl)o1
    -30%	-6%	-1%	-0.5%	6%	-73%	8%	-15%
> COc1ccc(/C=N/NC(=O)c2ccn[nH]2)cc1COc1ccc(Cl)cc1Cl
    2%	?	-19%	-8.8%	3%	19%	nt	?
> Cc1cc(C)c(C(=O)CSc2nnc(C)c(=O)[nH]2)cc1C
    1%	nt	1%	nt	nt	0%	-1%	nt
> COc1ccc(C(=O)CC(SCC(NC(C)=O)C(=O)O)c2ccc(Cl)cc2)cc1OC (centres undefined)
    -13%	nt	-3%	nt	nt	0%	-17%	nt
> COc1cccc(CNC(=O)CCC2CCCN(c3cc(C)nc(N4CCCC4)n3)C2)c1 (centres undefined)
    -6%	?	1%	nt	nt	10%	-17%	3%
> CC1=C(C(=O)NC(C)C)C2(CCC(C)CC2)OC1=O (centres undefined)
    -4%	nt	1%	-0.5%	-3%	6%	-16%	nt
> C=CCSc1nc2ccsc2c(=O)n1-c1cccnc1
    10%	0%[46.1 µM]	6%	nt	nt	4%	-24%	6%

Not a hit list. Share with any hit: about 4.7%.
